Screens as filed in PubChem BioAssay.
CBX7 inh: CBX7 chromodomain binding inhibitors, primary screen, biochemical, AlphaScreen; AlphaScreen His6-CBX7 / biotin-H3K27me3 peptide binding; active compounds read low; AID 1224903, 2016; normalised signal (fraction of DMSO) (test concentration not listed); hit rate 1.1% among 66,000; Chromobox protein homolog 7 (Homo sapiens), O95931; in the data active means normalised signal below about 0.5;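 further: 100 nL library stock added to about 20 µL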
Target sequence (O95931 whole entry, looked up): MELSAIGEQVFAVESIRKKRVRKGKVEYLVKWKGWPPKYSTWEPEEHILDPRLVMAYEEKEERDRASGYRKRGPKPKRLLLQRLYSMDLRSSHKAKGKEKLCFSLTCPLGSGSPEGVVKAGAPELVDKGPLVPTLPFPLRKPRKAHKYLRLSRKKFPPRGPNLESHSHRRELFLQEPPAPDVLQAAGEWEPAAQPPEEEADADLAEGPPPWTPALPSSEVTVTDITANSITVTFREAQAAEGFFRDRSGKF
CBX7 inh z-score: recorded beside CBX7 inh, whose call it bears; z-score; measured here: z-score of CBX7 signal; some inactives read as strong as hits; reference of the scale not given here;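 same signal on another scale; lower means less binding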
* marks the source's active call; other numbers are inactive results; & = joins results of further samples. This is a subset; the hit share may differ from the screen's.

Start of the data: the first six entries as a preview:
Below each compound: CBX7 inh, CBX7 inh z-score
> O=C(CN1C(=O)c2ccccc2S1(=O)=O)Nc1ccc(Oc2ccccc2)cc1
  1.11, 1.08
> COc1cccc(Nc2c3c(nc4ccccc24)CCC3)c1
  0.911, -2.66
> Cc1cccc(-n2c(Cc3cc(=O)[nH]c(=O)[nH]3)nnc2SCc2ccc(Br)cc2)c1
  0.988, -0.0489
> CC(C)OCCCNC(=O)Cn1nc(-c2ccccc2)ccc1=O
  1.02, 0.469
> COc1ccc(Cl)cc1NC(=O)c1cc(C)nn1-c1ccccc1
  1.08, 2.48
> Cc1ccc(C)c(CN2C(=O)CSc3ccc(C(=O)NCCC(C)C)cc32)c1
  1.01, 0.185

The list itself, previewed entries included:
Below each compound: CBX7 inh, CBX7 inh z-score
> O=C(CN1C(=O)c2ccccc2S1(=O)=O)Nc1ccc(Oc2ccccc2)cc1
  1.11, 1.08
> COc1cccc(Nc2c3c(nc4ccccc24)CCC3)c1
  0.911, -2.66
> Cc1cccc(-n2c(Cc3cc(=O)[nH]c(=O)[nH]3)nnc2SCc2ccc(Br)cc2)c1
  0.988, -0.0489
> CC(C)OCCCNC(=O)Cn1nc(-c2ccccc2)ccc1=O
  1.02, 0.469
> COc1ccc(Cl)cc1NC(=O)c1cc(C)nn1-c1ccccc1
  1.08, 2.48
> Cc1ccc(C)c(CN2C(=O)CSc3ccc(C(=O)NCCC(C)C)cc32)c1
  1.01, 0.185
> COc1ccc(-c2csc(Nc3ccc(N)cc3)n2)cc1
  0.408*, -7.5*
> COc1ccc(NC(=O)c2cn(-c3ccccc3)nc2-c2cccnc2)cc1
  0.992, -0.0891
> CCSc1nnc(NC(=O)c2ccccc2)s1
  1.14, 1.35
> CCN1C(=O)c2ccccc2Sc2ccc(C(=O)NCCCN(CC(C)C)CC(C)C)cc21
  1.07, 2.05
> CCOc1ccc(C(=O)Nc2ccc3oc(-c4ccccc4C)nc3c2)cc1
  0.87, -0.526
> CC1(C(=O)NC2CCCCC2)CCC(=O)N1Cc1ccccc1Cl (stereo not drawn)
  0.825, -2.86
> Cc1ccc(CC(C(=O)Nc2cccc(Cl)c2C)C(C)C(=O)O)cc1 (stereo not drawn)
  0.891, -0.472
> Cc1c(C(=O)OCc2ccccc2)nnn1-c1nonc1N
  0.934, -0.912
> CCC(=O)N1c2ccc(S(=O)(=O)NCCCN3CC(C)CC(C)C3)cc2CC1C (stereo not drawn)
  1.11, 0.457
> O=C(Nc1ccc(Cl)cc1)C1CCN(c2nnc(-n3cccc3)s2)CC1
  0.792, -3.41
> COc1ccc(-c2csc(NC(=O)c3ccc(Cc4ccccc4)cc3)n2)cc1OC
  0.76, -4.51
> Cc1nc2c(-c3ccc(F)cc3)c(C)nn2c(C)c1CCC(=O)NC(C)c1ccccc1 (stereo not drawn)
  1.09, 1.77
> CC(C(=O)C12CC3CC(CC(C3)C1)C2)N(C)C (stereo not drawn)
  0.884, -1.86
> CC(C)Cc1cc(C(=O)NC(C)c2ccccc2)no1 (stereo not drawn)
  0.991, -0.281
> Cc1c(C(=O)Nc2ccccc2Br)oc2ccc(S(=O)(=O)N3CCCCC3)cc12
  0.987, -0.521
> CCCC(=O)Nc1cccc(-c2nc3ccccc3s2)c1C
  1.02, 0.271
> Cc1ccc2c(c1)-c1c(cnn1CC(=O)Nc1nc(C)cs1)CO2
  0.911, -1.68
> COc1ccc(C(=O)Nc2c(C(=O)c3ccc(Cl)cc3)oc3ccccc23)cc1
  1.08, 0.344
> O=C(c1ccc(CNc2c(N3CCCCC3)c(=O)c2=O)cc1)N1CCCCC1
  0.998, -0.00498
> O=C(CSc1n[nH]c(-c2ccccc2)n1)Nc1nnc(-c2ccccc2)s1
  1.22, 3.51
> COc1ccc(-n2c(Cc3cc(=O)[nH]c(=O)[nH]3)nnc2SCC(=O)Nc2nccs2)cc1
  1.05, 1.25
> CCCSc1oc(-c2ccc(F)cc2)nc1S(=O)(=O)c1ccc(F)cc1
  1.11, 0.183
> O=C(Nc1ccc2oc(-c3cccnc3)nc2c1)c1ccc(-c2ccc(F)cc2)o1
  0.99, -0.0846
> Cc1ccc(-c2nnc(Nc3ccc(CC(N)=O)cc3)c3ccccc23)cc1S(=O)(=O)N1CCOCC1
  0.975, -0.116
> CCCCNC(=O)c1cc(-c2ccc(F)cc2)on1
  1.1, 1.09
> CCCSCCCNC(=O)CN1C(=O)COc2ccc(S(=O)(=O)N3CCCC3)cc21
  0.952, -1.56
> CC(=O)Nc1ccc(NC(=O)c2cc(-c3cccs3)nc3ccccc23)cc1
  0.918, -0.699
> Cc1cccc(CN2C(=O)c3ccccc3S(=O)(=O)c3ccc(C(=O)N4CCCCC4)cc32)c1
  0.95, -1.2
> COc1cccc(-c2nn(C)c3sc(C(=O)N(C)Cc4ccccc4)cc23)c1
  0.972, -0.365
> CC1CC(C)CN(S(=O)(=O)c2ccc(F)c(C(=O)Nc3cccc(F)c3)c2)C1 (stereo not drawn)
  1.23, 1.73
> CCOC(=O)c1cnc2ccc(OCC)cc2c1N1CCN(c2cccc(Cl)c2)CC1
  0.735, -0.298
> Cc1ccc(CNC(=O)CSCc2nc(-c3ccccc3F)oc2C)cc1
  0.965, -0.655
> O=C(Nc1cccc(O)c1)c1nn2c(c1Cl)NC(c1cccs1)CC2C(F)(F)F (stereo not drawn)
  1.19, 2.05
> Cc1nc2oc3c(-c4ccc(Br)cc4)ncnc3c2c2c1COC(C)(C)C2
  0.944, -0.674
> Cc1ccn2c(NC(=O)C(C)(C)Oc3ccc(Cl)cc3)c(-c3ccc(F)cc3)nc2c1
  1.14, 1.39
> COc1ccc(C(=O)NCc2nnc(SCC(=O)N3CCCc4ccccc43)o2)cc1OC
  0.965, -1.01
> COc1ccc(CC(=O)Nc2ccc(-c3nc4ccccc4o3)cc2)cc1
  1.08, 0.288
> CCCN(CCC)CCNC(=O)C1CCN(Cc2nc(-c3ccc(Cl)cc3)oc2C)CC1
  1.95, 8.05
> CC(C)OC(=O)c1c(NC(=O)c2cccc(Cl)c2)sc2c1CCCC2
  1.18, 7.19
> CCN(CC)S(=O)(=O)c1ccc2c(c1)N(CC(=O)NCC1CCCO1)C(=O)CO2 (stereo not drawn)
  1.09, 2.54
> Cc1ccccc1NC(=O)c1cc(-c2ccccc2Cl)nc2ccccc12
  1.19, 0.66
> Cc1csc2ncc(C(=O)Nc3ccc(C(C)C)cc3)c(=O)n12
  1.09, 3.22
> COc1ccc(CC(=O)Nc2ccc(S(=O)(=O)Nc3nccs3)cc2)cc1
  0.986, -0.0342
> Cc1c(CCNC(=O)Nc2ccccc2)c2ccccc2n1Cc1ccccc1
  0.857, -4.63
> CC1(C)CC(=O)c2cc(OCC(=O)NCc3ccc(F)cc3Cl)ccc2O1
  0.769, -2.36
> CCCC(=O)NCCc1cc2c(OC)ccc(OC)c2[nH]c1=O
  1.03, 1.02
> Cc1ccc(C)c(N2CCN(S(=O)(=O)c3ccc4c(c3)CCN4C(=O)CCC(=O)O)CC2)c1
  1.1, 1.56
> CCN1CCN(C(c2cccs2)C(C)NC(=O)c2cccc(OC)c2OC)CC1 (stereo not drawn)
  1.05, 0.516
> CCc1nnc(NC(=O)c2ccc(S(=O)(=O)N3CCC(C)CC3)cc2)o1
  0.621, -8.56
> Cc1noc(C)c1S(=O)(=O)N(C)CC(=O)NCc1ccccc1
  1.04, 1.11
> CCCN(CCC)S(=O)(=O)c1ccc(C(=O)Nc2cc(OC)cc3cccnc23)cc1
  1.13&1.1, 3.57&1.3
> COc1ccc(-n2cc(-c3ccccc3)nc2SCC(=O)Nc2ccc(F)cc2)cc1Cl
  0.791, -6.85
> Cc1ccc(NC(=O)CSc2nccn2C)cc1
  0.985, -0.174
> COCCNC(=O)CSc1nc(-c2ccc(SC)cc2)[nH]c1-c1ccccc1
  0.965, -0.592

Single entries from the list:
For CBX7 inh, COc1cccc(-c2nn(C)c3sc(C(=O)N(C)Cc4ccccc4)cc23)c1 shows 0.972
For CBX7 inh z-score, COc1ccc(CC(=O)Nc2ccc(-c3nc4ccccc4o3)cc2)cc1 shows 0.288
For CBX7 inh, CC1(C)CC(=O)c2cc(OCC(=O)NCc3ccc(F)cc3Cl)ccc2O1 shows 0.769
For CBX7 inh, COc1ccc(-c2csc(Nc3ccc(N)cc3)n2)cc1 shows 0.408*

Next section
Below each compound: CBX7 inh, CBX7 inh z-score
> Cc1cccc(NC(=O)CSc2ncc(-c3ccc(Br)cc3)[nH]2)c1
  0.805, -0.449
> CCc1ccccc1N(C)C(=O)CCc1nc(-c2ccc(C)cc2)no1
  1.04, 0.378
> COc1ccccc1C1C(Oc2ccccc2C)C(=O)N1c1cccc([N+](=O)[O-])c1 (stereo not drawn)
  0.832, -3.89
> NC(=O)c1c(NC(=O)c2ccccc2F)sc2c1CCCC2
  1.1, 2.47
> NS(=O)(=O)c1ccc(CNC(=O)c2cc(-c3ccc(Cl)s3)nc3ccccc23)cc1
  1.03, 0.632
> O=C(NCCN1CCCC1)C1CCN(c2nc3ccccc3[nH]2)CC1
  1.13, 1.45
> COc1ccc(NC(=O)[C@H](CCS(C)(=O)=O)N2Cc3ccccc3C2=O)cc1OC
  1.04, 0.686
> Cn1c(C(=O)NCCc2ccc(S(N)(=O)=O)cc2)cc2sc(Cl)cc21
  0.955, -1.8
> Cc1sc2ncnc(Nc3ccc(F)cc3Cl)c2c1S(=O)(=O)N1CCC(C)CC1
  1.07, 0.839
> Clc1ccc(-c2nc(N3CCN(Cc4ccccc4)CC3)c3ccccc3n2)cc1
  1.11, 5.7
> COc1cccc(-c2nc(S(=O)(=O)c3ccc(Cl)cc3)c(NCc3ccccc3)o2)c1
  0.74, -4
> COc1ccc(Cl)cc1NC(=O)COc1cc(=O)n(C)c2ccccc12
  0.867, -2.18
> CCCCCCOc1ccc(C(=O)Nc2ccccn2)cc1
  1.1, 2.03
> COc1ccc(NC(=O)CSc2nccn2-c2cccc(OC)c2)cc1
  0.809, -0.253
> Cc1cccc(C(O)(CCN2CCCCC2)c2ccccc2)c1 (stereo not drawn)
  1.14, 2.62
> Cc1cc(-c2nc3cc(N)ccc3o2)ccc1Br
  1.2, 1.29
> COc1ccc(CNC(=O)c2cc3c(C)nccc3[nH]c2=O)cc1
  1.13, 1.65
> COc1cccc(/C=C/c2nc3ccccc3c(=O)n2-c2ccc(Oc3ccc(Cl)cc3)cc2)c1OC
  1.04, 2.15
> Cc1ccc(C)c(NC(=O)c2cnc3scc(C)n3c2=O)c1
  1.05, 1.85
> Cc1ccc(CNC(=O)C2CC(=O)N(C3CCCCCC3)C2)cc1 (stereo not drawn)
  1, 0.0825
> CCOC(=O)c1sc2nc(Cc3ccccc3)nc(N3CCN(c4ccccc4)CC3)c2c1C
  1.15, 5.29
> O=C(NCCCN1CCN(c2cccc(Cl)c2)CC1)Nc1ccccc1C(F)(F)F
  0.97, -0.0402
> CCOC(=O)c1cnc2c(C)cccc2c1NCc1cccnc1
  0.999, -0.0088
> CCOc1ccccc1NC(=O)C1CCN(S(=O)(=O)c2ccccc2)CC1
  0.861, -2.58
> Nc1ccc2nc(SCC(=O)NCCc3ccccc3)sc2c1
  1.04, 0.263
> CCCn1c(C(C)NC(=O)COC)nc2ccccc21 (stereo not drawn)
  1.01, 0.23
> CC(CNC(=O)CN1C(=O)CCSc2ccccc21)c1ccccc1 (stereo not drawn)
  1.03, 1.19
> COc1ccc2nc(NC(=O)Cc3c(C(=O)O)[nH]c4ccc(Cl)cc34)sc2c1
  0.763, -1.9
> Cc1ccccc1C1Nc2ccc3ncccc3c2C2=C1C(=O)CCC2 (stereo not drawn)
  1.11, 1.35
> Cc1cc(Nc2ccccc2Cl)n2nc(C)nc2n1
  1.03, 0.572
> CCCc1ccc(-c2csc(NC(=O)CCC(=O)O)n2)cc1
  0.991, -0.255
> O=C(Cn1nc(Cc2cccnc2)c2ccccc2c1=O)NCCCN1CCCC1=O
  1.08, 0.108
> Cc1ccc(CNC(=O)Cc2cn(C)c3ccccc23)cc1
  0.956, -1.54
> Nc1cccc(C(=O)CC2(O)C(=O)N(Cc3ccc(Cl)cc3)c3ccccc32)c1 (stereo not drawn)
  0.935, -3.24
> Cc1ccccc1Cc1c(C)nc2c(C(=O)NC(C)C)cnn2c1C
  0.988, -0.339
> CCC(C)NC(=O)CN1CCN(Cc2ccc(F)cc2Cl)C1=O (stereo not drawn)
  1.06, 1.27
> CCS(=O)(=O)N1CCC(C(=O)NC(C)c2ccccc2)CC1 (stereo not drawn)
  1.05, 0.778
> CC(=O)Nc1ncc(CN2CCN(C(c3ccccc3)c3ccccc3)CC2)s1
  0.885, -1.77
> CCn1cc(C(=O)N(C)c2cc(Cl)ccc2OC)c2cc(OC)c(OC)cc2c1=O
  1.02, 0.193
> Cc1ccc(C)c(NC(=O)C2CCN(c3nnc(-n4cccc4)s3)CC2)c1
  1.02, 0.612
> CC(CNC(=O)c1ccc2c(c1)NC(=O)c1ccccc1S2)c1ccccc1 (stereo not drawn)
  0.933, -1.87
> CCc1ccc(NC(=O)CCc2c(C)nc3cc(-c4ccc(Cl)cc4)nn3c2C)cc1
  1.04, 0.887
> CCC(=O)N1CCc2cc(S(=O)(=O)NC(C(=O)NCc3ccc4c(c3)OCO4)C(C)C)ccc21 (stereo not drawn)
  0.982, -0.584
> COc1ccccc1Nc1nc(-c2ccncc2)nc2ccccc12
  0.329*, -0.668*
> CCOc1ccc(NS(=O)(=O)c2ccc3[nH]cc(C(=O)NC(C)c4ccccc4)c(=O)c3c2)cc1 (stereo not drawn)
  0.577, -5.82
> COc1ccc(Nc2cc(C(=O)NCCC3=CCCCC3)c3ccccc3n2)cc1
  0.819, -2.15
> CC(C)N(C)CC#CC(O)(c1ccccc1)C1CCCC1 (stereo not drawn)
  1.06, 0.385
> CCn1c(C(=O)N2CCC(C(=O)N3CCN(Cc4ccccc4)CC3)CC2)cc2sccc21
  0.874, -0.554
> Cc1ccnc(N2C(=O)c3ccccc3C2Nc2cc(Cl)ccc2C)c1 (stereo not drawn)
  0.999, -0.0403
